STK33 inh: inhibitors of human STK33 kinase | actives 0.073% (n = 320,000) | purified STK33, MBP phosphorylation, ADP-Glo luminescence | Q9BYT3 | inhibition, % at 10 µM | AID 2661;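 active means inhibition at or above 25%, using the most active replicate where run in duplicate; inactive means inhibition below 25%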
Target sequence (Q9BYT3 whole entry, looked up): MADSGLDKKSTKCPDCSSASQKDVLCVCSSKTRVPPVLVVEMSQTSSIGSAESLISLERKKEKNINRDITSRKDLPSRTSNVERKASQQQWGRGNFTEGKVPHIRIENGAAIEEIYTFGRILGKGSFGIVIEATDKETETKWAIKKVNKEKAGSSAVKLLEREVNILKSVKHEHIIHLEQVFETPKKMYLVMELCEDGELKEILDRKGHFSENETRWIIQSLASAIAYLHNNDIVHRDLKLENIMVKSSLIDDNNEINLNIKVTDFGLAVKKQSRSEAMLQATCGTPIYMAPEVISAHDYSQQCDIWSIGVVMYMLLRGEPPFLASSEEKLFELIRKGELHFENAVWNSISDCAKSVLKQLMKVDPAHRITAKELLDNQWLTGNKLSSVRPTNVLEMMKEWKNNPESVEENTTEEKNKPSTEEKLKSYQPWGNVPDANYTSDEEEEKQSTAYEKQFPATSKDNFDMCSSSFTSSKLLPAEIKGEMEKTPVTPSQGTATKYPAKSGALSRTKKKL
The depositor's hits bear a star.

molecule	STK33 inh
Cc1[nH]c2ccc(F)cc2c1CCN(Cc1ccncc1)C(=S)Nc1cccc(F)c1	-1.3
O=C(Nc1ccccc1)C1=C[C@H](c2ccc(C(F)(F)F)cc2)C[C@H](OCCCCO)O1	-0.3
CN(C)c1ccc(N/C=C/C(=O)C(C)(C)C)cc1	0.0
COc1ccc(-c2nnc(SCC(=O)Oc3ccc(C)cc3)o2)cc1	-0.4
Cc1ccc2c(C(=O)CN3CCN(c4ccccc4)CC3)c(C)[nH]c2c1	-0.5
COc1ccc2c(=O)c(C(=O)NCc3ccccc3)c[nH]c2c1	-1.4
COCCn1c(SCC(=O)Nc2cccc(NC(C)=O)c2)nc2c([nH]c3ccccc32)c1=O	-0.3
O=C(/C=C/c1ccco1)NCC1CCCO1 (stereo not drawn)	-2.7
CN(C(=O)CSc1nnc(COc2ccccc2F)n1N)C1CCCCC1	-3.9
COc1cccc(CCc2nnc(CCC(=O)N3CCCC3c3nccs3)o2)c1 (stereo not drawn)	-1.3
COc1ccc(N2CCN(C(=O)CSc3nnc(Cn4nnc5ccccc54)n3C)CC2)cc1	-0.3
C=CCNC(=S)Nc1ccc2nc(C)c(C)nc2c1	1.2
O=C(N/N=C/c1c(Cl)cccc1Cl)C(=O)NC1CC1	-0.2
O=CNc1ccc(S(=O)(=O)NCc2ccccc2)cc1	0.2
Cc1cccc(NC(=O)CSc2nc3ccccc3c3nc(CCc4c(C)n[nH]c4C)nn23)c1	-0.1
Cc1c(C(=O)NC2CC2)oc2ccccc12	-0.3
COc1cccc(OC)c1C(=O)N1CCN(Cc2ccc3c(c2)OCO3)CC1	-1.4
CCN(CC)CCNC(=O)C(C(=O)c1ccccc1)n1ccccc1=O (stereo not drawn)	0.6
CC(=O)N1CCN(c2nc(-c3cccs3)nc3ccccc23)CC1	-2.9
CCCN(CCC)C(=S)NC(=O)c1ccc(-c2ccccc2)cc1	0.1

(further entries)
molecule	STK33 inh
O=C(OCc1cc2ccccc2[nH]c1=O)c1cccnc1	0.1
COc1cc(CNn2nnnc2N)cc(Br)c1OCc1c(Cl)cccc1Cl	-0.7
Cc1ccc(-c2nnc(SCC(=O)N3CCOCC3)nc2-c2ccc(C)cc2)cc1	-0.8
CN(CCc1ccccn1)S(=O)(=O)c1ccc2c3c(cccc13)C(=O)N2	11.2
CCCCC(=O)OCc1cn(-c2ccc(Cl)cc2)nn1	0.3
COc1cc(/C=N/NC(=O)c2cccc([N+](=O)[O-])c2)ccc1OCc1ccc(C)cc1	-2.2
Nc1c(Cl)cc(-c2[nH]c3cc(C(=O)NCCO)ccc3c(=O)c2O)cc1Cl	-0.3
COC(=O)/C(C#N)=C/c1c(N2CCN(c3cccc(Cl)c3)CC2)nc2c(C)cccn2c1=O	-2.0
CCOC(=O)C1=C(CC)Nc2ccccc2N=C1NC(=O)c1ccc(S(=O)(=O)N(C)C)cc1	1.5
Cc1cc(Cl)ccc1OCC(=O)N(Cc1ccco1)C1CCS(=O)(=O)C1 (stereo not drawn)	-0.3
CN(C)CCCN1C(=O)CSC1c1ccccc1 (stereo not drawn)	0.2
COc1ccc(NC(=O)[C@@H](NC(=O)N2C[C@H]3C[C@@H](C2)c2cccc(=O)n2C3)C(C)C)cc1OC	-0.5
OCCNC(=S)NCCc1ccccc1	-0.2
CCNC(=O)COC(=O)c1ccc(-n2nc(C)cc2C)cc1	-1.3
O=C(CSc1nnc(-c2ccccn2)n1Cc1ccccc1)N1CCOCC1	-1.3
Cc1ccccc1Cn1ccc(NC(=O)c2nn3cccnc3c2Cl)n1	-0.1
O=C(Nc1ccccc1Br)c1ccc(OC(=S)N2CCOCC2)cc1	-1.7
COc1cccc(N(CC(=O)Nc2ccc3c(c2)OCO3)S(=O)(=O)c2ccccc2)c1	-1.9
O=C(c1ccc(OC2CCN(C(=O)c3cccnc3)CC2)cc1)N1CCCCCC1	0.3
COC(=O)c1ccc(CSc2nc(C(F)(F)F)c3c(c2C#N)CCC3)o1	-0.4

The list continues:
molecule	STK33 inh
Cn1c2ccccc2c2cnn(CC(=O)N3CCCCC3)c(=O)c21	-0.4
O=C(Nc1ccc2c(c1)OCO2)C1CCN(S(=O)(=O)c2ccc3c(c2)OCCO3)CC1	0.3
CC1=CC(C)(C)N(C(=O)CSc2nccn2C)c2cc(C)ccc21	-0.3
CCn1c(-c2ccccc2Cl)nn(CC(=O)Nc2ccc(OC)cc2)c1=S	-1.5
Cc1cccc(NC(=O)CNC(=O)c2cccs2)n1	0.4
COc1cccc(-c2c(-c3cc(OC)cc(OC)c3)n(C)c3ccc(-c4cnc(N5CCOCC5)nc4)cc23)c1	-0.8
CC(C)N(Cc1ccccc1)C(=S)NCc1ccccc1	0.8
COc1ccc(CNC(=O)c2cccnc2Sc2ccc(C)c(C)c2)cc1	-1.0
CCOC(=O)C1=NNC2(c3ccc(Cl)cc3)C(=O)N(c3ccc(C)cc3)C(=O)C12 (stereo not drawn)	-0.8
CC(Oc1ccccc1)c1ccnn1S(C)(=O)=O (stereo not drawn)	-1.1
CCCNC(=O)Nc1ccc2c(c1)N(C)C(=O)c1ccccc1S2	-0.3
Cc1cccc(-n2c(O)c(C=NC3CCS(=O)(=O)C3)c3ccccc3c2=O)c1 (stereo not drawn)	0.0
Cc1c(C(=O)OCC(=O)NC2CCCCC2)oc2ccccc12	-2.1
CCS(=O)(=O)NCc1cn2c(C)csc2n1	0.9
Cc1ccnc(Sc2nc3c(c(=O)[nH]c(=O)n3C)n2CCCc2ccccc2)n1	-0.4
COc1cc(C=O)c(Cl)cc1OCC(N)=O	-0.3
CN(C)CCC=C1c2ccccc2C=Cc2ccccc21	0.9
Cc1ccc(C(=O)Nc2ccc3c(c2)C(=O)NC3=O)cc1	-1.0
CN(C(=O)COC(=O)CCC(=O)c1ccc(Cl)cc1)c1c(N)n(Cc2ccccc2)c(=O)[nH]c1=O	5.8
COc1cccc(N(CC(=O)NC2CC3CCC2C3)S(=O)(=O)c2ccccc2)c1 (stereo not drawn)	-1.9

Taken from the results shown, five compounds:
molecule	STK33 inh
Cn1c2ccccc2c2cnn(CC(=O)N3CCCCC3)c(=O)c21	-0.4
O=C(Nc1ccc2c(c1)OCO2)C1CCN(S(=O)(=O)c2ccc3c(c2)OCCO3)CC1	0.3
CC1=CC(C)(C)N(C(=O)CSc2nccn2C)c2cc(C)ccc21	-0.3
CCn1c(-c2ccccc2Cl)nn(CC(=O)Nc2ccc(OC)cc2)c1=S	-1.5
Cc1cccc(NC(=O)CNC(=O)c2cccs2)n1	0.4

Next part
molecule	STK33 inh
Cc1ccc(C(=O)Nc2nnc(C)s2)cc1	-0.2
Cc1ccc2nc(SCC(=O)Nc3ccccc3N3CCOCC3)c(C#N)cc2c1	-1.1
O=C(CN1CCC(n2nnc3ccccc32)CC1)NCc1cccs1	0.3
CSc1ncccc1C(=O)OCC(=O)c1ccc(C)s1	1.0
COc1ccc(OCC(=O)Nc2ccccc2-c2ccccc2)cc1	-1.6
CCCC(=O)N1CCN(c2ccc([N+](=O)[O-])cc2Cl)CC1	-1.0
CC(C)(C)c1ccc(C(=O)NNC(=O)c2ccccc2Br)cc1	1.2
CC1(C)CC(c2nc(-c3ccc([N+](=O)[O-])cc3)cs2)CCO1 (stereo not drawn)	0.1
COC(c1ccccc1)c1nc2ccccc2[nH]c1=O (stereo not drawn)	-0.6
Nc1csnc1C(=O)O	-0.3
Cc1cc2c(NC(=O)Nc3ccccc3)cccc2nn1	0.1
Cn1cnc([N+](=O)[O-])c1NCc1ccccc1	1.6
O=C(/C=C/c1ccccc1)Nc1sc2c(c1C(=O)O)CCC2	-0.5
COc1cc(SC)ccc1C(=O)Nc1cccc(C2OCCCO2)c1	0.0
COc1ccc(CN2CCCC(C(=O)N3CCCCC3)C2)cc1 (stereo not drawn)	-0.2
COc1ccc(-c2cc3ccc(F)cc3cn2)cc1	0.8
O=C(COc1ccc(Cl)cc1Br)Nc1ccccc1N1CCCC1	0.9
O=C(CSc1nnc(CNC(=O)c2cccs2)o1)Nc1cccc(F)c1	-2.5
Cc1cc(C2=CC(C)(c3cc(C)oc3C)Nc3nc(C(F)(F)F)nn32)c(C)o1 (stereo not drawn)	0.4
COc1ccc(C(=O)Nc2ccc(S(=O)(=O)NC(C)=O)cc2)cc1[N+](=O)[O-]	-0.8

Exported with the structure last: part of the list above.
STK33 inh | SMILES
-0.2 | COc1ccc(CN2CCCC(C(=O)N3CCCCC3)C2)cc1 (stereo not drawn)
-0.2 | Cc1ccc(C(=O)Nc2nnc(C)s2)cc1
-1.1 | Cc1ccc2nc(SCC(=O)Nc3ccccc3N3CCOCC3)c(C#N)cc2c1
-1.6 | COc1ccc(OCC(=O)Nc2ccccc2-c2ccccc2)cc1

(cont.)
molecule	STK33 inh
CCOC(=O)C1CCN(C(=O)CNC(=O)OC(C)(C)C)CC1	0.0
CC(NC(=O)C12CC3CC(CC(C3)C1)C2)C(=O)NN=Cc1ccc([N+](=O)[O-])o1 (stereo not drawn)	-3.6
CCN(CC)C(=O)COC(=O)c1ccc(O)cc1	-0.6
COc1ccc(/C=C(/NC(=O)c2ccccc2)C(=O)NCc2ccco2)cc1	-2.1
CCOC(=O)C1(Cc2ccc(OC)cc2)CCN(C(=O)c2cccc3nccnc23)CC1	-1.3
COc1ccc(CC(=O)OCC(=O)c2ccc(OC)cc2)cc1	2.0
CN1C(=O)C(C)(C)c2cc(S(=O)(=O)NCC3CCC(C(=O)NCc4ccccc4)CC3)ccc21 (stereo not drawn)	-1.6
Cc1ccc(Oc2cc([N+](=O)[O-])cc3c2C(=O)Nc2ccccc2O3)cc1	1.6
COc1ccc(S(=O)(=O)Nc2ccc(N3CCOCC3)cc2)cc1	-0.4
O=C(NC(=S)NCc1ccco1)c1ccccc1	-0.9
CC(C)OP(=O)(OC(C)C)C(Nc1cccc(C(=O)O)c1)c1ccccc1 (stereo not drawn)	-0.5
O=C(NCCc1ccncc1)c1ccc2nc(Cc3cccc(Cl)c3)oc2c1	-0.4
CCCCCC(=O)N1CCN(CCN=CC2=C(O)CC(c3ccc(OC)c(OC)c3)CC2=O)CC1 (stereo not drawn)	-1.8
Cc1ccc(NC(=O)CSc2nnc(-c3cnccn3)n2-c2ccccc2)cc1	-0.4
Cc1ccc(C2=NS(=O)(=O)N(C)C(C(=O)N3CCOCC3)=C2)cc1	0.5
Cc1nn(C)c(C)c1S(=O)(=O)N1CCCC(C(=O)NC2CCCCC2)C1 (stereo not drawn)	-0.2
CCc1cccc(CC)c1NC(=O)CO/N=C(\N)CC(=O)NC1CCCCC1	-1.7
CN(C)c1ccnc(Nc2ccc(F)cc2)c1C#N	-0.6
COC(=O)C1=C(C)NC(=O)NC1c1ccc(OC(=O)c2ccco2)cc1 (stereo not drawn)	-2.1
CNC(=O)c1c(NC(=O)c2ccc(S(=O)(=O)N3CCCC3)cc2)sc2c1CCN(C(C)C)C2	-0.7

(more compounds)
molecule	STK33 inh
O=C(OCc1ccccc1C(F)(F)F)c1cc([N+](=O)[O-])ccc1N1CCOCC1	-0.1
CCOC(=O)N1CCN(C(=O)c2ccc3nc4ccc(Cl)cc4c(=O)n3c2)CC1	0.8
Cc1cccc(NC(=O)COC(=O)c2ccc3c(c2)OCO3)c1C	-0.5
O=C1NCCN(Cc2ccc(F)cc2)C1CC(=O)N1CC=C(c2ccccc2)CC1 (stereo not drawn)	0.4
CSCCC(C(=O)N(C)CC(=O)Nc1cccc(F)c1)N1C(=O)c2ccccc2C1=O (stereo not drawn)	-0.7
CC(=O)N1N=C(c2ccc(C)cc2)OC1c1ccc(Br)cc1 (stereo not drawn)	0.8
Cc1ccc2c(c1)[C@H]1[C@H](CO2)[C@H](c2ccccc2)[C@]2(C)C(=O)Nc3ccc(Br)cc3C(=O)N12	0.9
CCOC(=O)c1sc2nc(SC)nc(-c3ccccc3)c2c1N	-0.7
Clc1ccc(-c2csc(N/N=C\c3cccnc3)n2)cc1	-2.7
COc1ccc(S(=O)(=O)NC2CCCC2)c(Cl)c1Cl	-0.4
CCOC(=O)c1c(S(=O)(=O)NCC(=O)Nc2ccccc2OC)c(C)n(C)c1C	-1.1
Cc1ccc2cc(NC(=O)Cc3ccccc3)ccc2n1	-0.1
Cn1cccc1CC(=O)NNC(=S)NC(=O)c1ccc(F)cc1	-0.7
CCOc1ccccc1OCCCCOc1ccccc1F	2.7
O=C(O)C1CCN(c2ccc(S(=O)(=O)N3CCC(C(=O)O)CC3)cc2[N+](=O)[O-])CC1	0.4
CCOc1ccc(S(=O)(=O)NCc2ccccc2OC)cc1	-4.0
CC(Sc1nnc(-c2cccnc2)n1-c1ccccc1)C(=O)NCc1ccc2c(c1)OCO2 (stereo not drawn)	0.4
Cc1oc2cc(O)ccc2c(=O)c1-c1cnn(-c2ccccc2)c1	-0.9
O=C(CSc1nc2[nH]ncc2c(=O)n1-c1ccccc1Br)NCc1ccco1	-1.7
CCn1c(SCC(=O)OC(C)C)nnc1-c1ccccc1	-4.8

Continuation:
molecule	STK33 inh
CN(C)S(=O)(=O)c1ccc(N/C=C(\[N+](=O)[O-])S(=O)(=O)c2ccccc2)cc1	-0.5
COc1ccc(Nc2nc(N3CCCCC3)c3ccccc3n2)cc1	0.8
COc1cccc(C2c3[nH]c4ccccc4c3C[C@H]3C(=O)N(CCCOC(C)C)CC(=O)N23)c1 (stereo partly drawn)	0.3
NC(=O)C1CCN(C(=O)Cc2ccc(-c3ccccc3)cc2)CC1	-0.5
Cc1ccc(S(=O)(=O)NCC(=O)N2CCc3ccccc3C2)cc1	-0.3
C=CCn1c(=S)[nH]c2cc(C(=O)Nc3ccc(OC)c(OC)c3)ccc2c1=O	-0.1
O=C(Cc1ccccc1)N1CCC(C(=O)N2CCN(c3ccc(F)cc3)CC2)CC1	-0.7
C=CCSc1nc2c(c(=O)[nH]c(=O)n2C)n1C/C=C(/C)Cl	-3.2
COc1cc(OC)c(NC(=O)CNC(=O)Cn2ccc3ccccc3c2=O)cc1Cl	-0.8

Not all compounds are listed, and most or all hits are left out here.
